# Vaccinia mCherry: inhibitors of vaccinia virus infection (mCherry reporter signal); Vaccinia virus mCherry reporter infection, fluorescence; about a quarter of the inactives have no number; Potency, µM (highest dose often 36.5 µM), for inactives: top-dose activity change, negative = inhibition, actives largely listed as inhibitors; 310,000 tested, 0.63% active; AID 720579; active = well fitted inhibition curve with a large enough effect; inconclusive = small, poorly fitted or top-dose-only effect; inactive = no such curve, though single readings can be large or run the other way; tested in A549 cells; further: nearly all actives have a fitted effect of over 35% in size; inactives centre near -10
# VACV Venus inh: vaccinia inhibition (Venus reporter); Potency, µM (titrated, usually from 36.5 µM), without a hit: top-dose activity change, negative = inhibition, actives largely listed as inhibitors; 330,000 tested, 0.46% active; AID 720580; Vaccinia virus Venus reporter expression, fluorescence; active means well fitted inhibition curve with a large enough effect; inconclusive means small, poorly fitted or top-dose-only effect; inactive means no such curve, though single readings can be large or run the other way; tested in A549 cells; further: nearly all actives have a fitted effect of over 30% in size; inactives centre near -10
# The depositor's hits bear a star; i = inactive; u = inconclusive; x = not tested or not shown; [ ] = dose if it differs, or a comment. On the % scale 0 is the no-effect control and ±100 the full control effect; potency means the concentration at half of the fitted maximal effect.
# Fields – Vaccinia mCherry	VACV Venus inh
- CCOc1cc(N2CCOCC2)c(OCC)cc1NC(=O)c1ccc(OC)cc1
 : -10.4%	-3.7%
- COc1ccc(C2CC(c3ccccc3)=NN2C(=O)COC(=O)c2cccc(S(=O)(=O)N(C)C)c2)cc1 (configuration not stated)
 : -25.2%	-18.8%
- COc1cc(/C=N/NC(=O)C2COc3ccccc3O2)ccc1O (configuration not stated)
 : -9.0%	-7.6%
- CC(=O)N[C@@H](Cc1c[nH]c2ccccc12)C(=O)OCC(=O)Nc1ccc(S(=O)(=O)N(C)C)cc1
 : i	3.3%
- O=C(CC1S/C(=N/N=C/c2cccnc2)NC1=O)Nc1ccccc1 (configuration not stated)
 : -10.8%	3.1%
- O=C(CSc1ccc(-c2ccc(F)cc2)nn1)N1CCN(c2ccccc2)CC1
 : -14.2%	-5.7%
- COc1ccc(NC(=O)c2cc(C3CCCCN3S(=O)(=O)c3c(C)noc3C)on2)c(C)c1 (configuration not stated)
 : i	-23.4%
- CCOC(=O)N1CCN(C(=O)c2ccc3c(SCC(=O)O)c4c(nc3c2)CCC4)CC1
 : i	-0.6%
- C[C@H](NC(=O)[C@@H]1Cc2ccccc2CN1C(=O)OC(C)(C)C)C(=O)NC1CCCCC1
 : -15.0%	-3.6%
- Cc1ccc(C)c(NC2=NCCCS2)c1
 : x	-3.9%
- CCN(CC)C(=O)c1sc(NC(=O)c2ccncc2)c(C(=O)OC)c1C
 : -10.2%	-4.9%
- Cn1c(NCCN2CCOCC2)nc2c1c(=O)n(Cc1cccc(Cl)c1)c(=O)n2C
 : x	-9.0%
- Cc1nc2c(=O)[nH]c(=S)n(C)c2nc1C
 : i	-12.1%
- CC(C)c1ccc(NC(=O)CSc2nnc(CN3CCOCC3)n2C)cc1
 : 1.3%	-13.3%
- O=C(NCCCN1CCOCC1)c1ccc(S(=O)(=O)Nc2cccc(C(F)(F)F)c2)cc1
 : u	-21.9%
- Clc1cccc(-c2nnc(-c3ccccc3)o2)c1
 : x	-16.7%
- CCCCOC(=O)c1ccccc1C(=O)OCc1ccccc1
 : i	-13.8%
- COc1cccc(C(c2nnnn2CS(=O)(=O)c2ccc(C)cc2)N2CCN(C)CC2)c1OC (configuration not stated)
 : -22.9%	-15.0%
- COC(=O)c1ccc(NC(=O)CSc2nc(=O)n(Cc3ccco3)c3c2CCC3)cc1
 : i	-12.9%
- CCOC(=O)[C@H]1[C@H]2COc3ccc(OC)cc3[C@@H]2N2C(=O)c3cc(C)ccc3NC(=O)[C@@]12C
 : i	-22.8%
- COc1ccc(Cc2nnc3sc(SCC(=O)Nc4ccccc4)nn3c2=O)cc1OC
 : -12.6%	-18.3%
- COc1ccc(NC(=O)C2(C)Cc3c(-c4ccc(NC(C)=O)cc4)ccnc3O2)cn1 (configuration not stated)
 : -16.5%	-20.8%
- Cc1ccc(Nc2ncnc3c2nc2n3CCCC2)c(Br)c1
 : -23.0%	-16.3%
- CC1(C)CC(=O)C(C2NCCc3ccccc32)=C(O)C1 (configuration not stated)
 : x	-6.0%
- CC(=O)Nc1ccc(S(=O)(=O)Nc2cccc3[nH]ncc23)cc1
 : -8.3%	-8.2%
- COc1ccc(C(=O)NCc2nnc(SCC(=O)N3CCCC3)o2)cc1
 : i	-15.6%
- O=C(NC1CCCCCCC1)c1cccnc1
 : i	8.8%
- CCOC(=O)C1(Cc2cccc(Cl)c2)CCCN(C2CCN(C(C)=O)CC2)C1 (configuration not stated)
 : -2.2%	4.3%
- O=Cc1ccc2c(c1)OCCOCCOCCOCCO2
 : i	0.8%
- Cc1cc(=O)n2nc(N3CCC(C(=O)NCCc4ccccc4)CC3)sc2n1
 : x	-0.9%
- COc1ccccc1-c1nnc(C2CCN(S(=O)(=O)c3ccc(CC(C)C)cc3)CC2)o1
 : -12.0%	-17.2%
- CCOC(=O)C1=CC[C@]2(C)c3c(c4ccccc4n3C)C(=O)C1N2C
 : -8.7%	-2.1%
- CC(=O)OCC1OC(n2c(Br)nc3c(=O)[nH]c(N)nc32)C(OC(C)=O)C1OC(C)=O (configuration not stated)
 : -17.7%	-8.2%
- CSc1ncccc1C(=O)OCc1ccc([N+](=O)[O-])cc1
 : i	-13.7%
- O=C(Nc1ccc(N2CCN(C(=O)c3ccco3)CC2)c(Cl)c1)c1cccnc1
 : i	-16.4%
- CCOc1ccc(C(C)NC(=O)c2ccccc2OCc2c(C)noc2C)cc1OCC (configuration not stated)
 : -25.2%	-18.6%
- CCCN1C(=O)C2(c3ccccc31)c1c(oc3ccc(C)cc3c1=O)C(=O)N2CCOC (configuration not stated)
 : -7.2%	-7.1%
- CC1(C)C(c2ccccc2)=NC(c2ccc(F)cc2)N1O (configuration not stated)
 : -7.8%	5.9%
- COc1cc(Nc2nnc(C)s2)c(Cl)cc1Cl
 : -0.9%	-10.6%
- Cc1ccc(/C=C2\SC(=S)N(CCC(=O)NNC(=O)c3ccncc3)C2=O)cc1
 : -14.2%	24.2%
- OC(CN1C2=NCCCN2c2ccccc21)c1ccc(Br)cc1 (configuration not stated)
 : x	-6.5%
- CCOC(=O)c1sc(=NC(=O)CCS(=O)(=O)c2ccccc2)n(C)c1C
 : -4.7%	-13.5%
- CCCCOc1cccc(C(=O)NC(=S)Nc2cccnc2)c1
 : u	-0.9%
- COc1cc2c(cc1OC)CN(C(=O)c1ccccc1C(=O)O)CC2
 : -19.5%	u
- CN(C)c1ccc(/C=N/N(CCO)C2=NS(=O)(=O)c3ccccc32)cc1
 : i	249.6%[activator]
- CC(C)c1nc2ccccc2n1CCC(=O)O
 : i	-9.6%
- COc1cc2c(cc1OC)C(c1ccc(Cl)cc1)N(c1ccc(C)c(F)c1)C(=O)C2 (configuration not stated)
 : -17.6%	-21.1%
- CCC(Cc1ccccc1)NCc1c(C(=O)O)c(C)n(Cc2ccccc2)c1C (configuration not stated)
 : -10.6%	-15.5%
- Cc1ccc(NC(=O)C2CCN(S(=O)(=O)c3cnc[nH]3)CC2)nc1
 : i	-11.2%
- C(=NOCCc1ccccc1)c1ccncc1
 : i	-16.1%
- CN(CC(=O)Nc1ccc(Cl)c(C(F)(F)F)c1)C(=O)c1cccs1
 : -9.1%	-10.0%
- O=S(=O)(c1ccc2c(c1)OCCO2)N(Cc1ccc(F)cc1)Cc1nnc(-c2cccs2)o1
 : -10.5%	-1.6%
- Cc1ccc(-c2nn(-c3ccc(F)cc3F)c3c2cnc2ccc(F)cc23)cc1
 : -29.2%	-19.0%
- COc1ccc(-n2nnc3c(=O)n(CC(=O)Nc4cc(C)on4)cnc32)cc1OC
 : -1.5%	-6.9%
- Cc1ccc(-c2nnn3c2nc(NC2CCC(C)CC2)c2ccccc23)cc1 (configuration not stated)
 : 2.5%	-4.1%
- CN(CCC(N)CC(=O)NC1C=CC(n2ccc(N)nc2=O)OC1C(=O)O)C(=N)N (configuration not stated)
 : i	-12.7%
- Cc1ccccc1C(=O)c1c[nH]c(C(=O)NCc2ccco2)c1
 : x	-20.4%
- O=C(Nc1ccc(Oc2ccc(NC(=O)c3ccco3)c(NC(=O)c3ccco3)c2)cc1)c1ccco1
 : -8.8%	-10.1%
- Cc1ccc(C(=O)NCC(=O)NCC(c2ccco2)N2CCCCC2)cc1C (configuration not stated)
 : -12.3%	-11.9%
- CCc1ccccc1NC(=O)CSc1nc2ccccc2nc1Cc1cccc(OC)c1
 : -3.3%	-1.3%

# (more compounds)
# Fields – Vaccinia mCherry	VACV Venus inh
- Cc1cc(C(=O)C(=O)O)c(C)n1-c1ccc(Cl)cc1
 : i	-21.6%
- COc1ccc(/C=C/C(=O)NCCCNC(=O)/C=C/c2ccc(OC)c(OC)c2)cc1OC
 : i	-12.0%
- Cc1nn(-c2ccccc2)c2c1cc1c(=O)n(C)c(=O)nc-1n2-c1cccc(Cl)c1
 : 7.5%	11.9%
- NS(=O)(=O)c1ccc(-c2cccc(/C=C3\SC(=O)NC3=O)c2)cc1
 : i	7.9%
- CC/C(=N/Nc1ccccc1)c1cnnc(SC)n1
 : x	-21.6%
- CC(=O)Nc1nn(CC(C)C)c2nc3ccc(C)cc3cc12
 : u	u
- FC(F)c1nc2ccccc2[nH]1
 : -1.6%	-1.1%
- Cn1c(=N)n(CC(=O)c2ccc(Cl)c(Cl)c2)c2ccccc21
 : -18.4%	u
- CC(C)(C)OC(=O)N1CCCN(C(=O)Nc2ccc(C(F)(F)F)cc2)CC1
 : -0.7%	0.0%
- COc1cc(OC)c(OC)cc1/C=C/C(=O)c1ccc(NS(=O)(=O)c2ccc(C)cc2)cc1
 : u	-28.7%
- CC1(c2ccc3c(c2)OCO3)NC(=O)N(CC(=O)Nc2ccccc2)C1=O (configuration not stated)
 : -13.4%	-15.7%
- COc1ccc(CN2CCN(C(=O)c3ccc(S(=O)(=O)N4CCCCCC4)cc3)CC2)cc1F
 : u	-24.0%
- Cc1nn(C(=O)Cn2ccc([N+](=O)[O-])n2)c(C)c1Cl
 : -9.7%	3.4%
- Cc1ccc(NC(=O)Nc2ccc3c(c2)OCO3)c(OC(F)F)c1
 : -13.7%	-13.3%
- Cc1ccccc1OCC(=O)NC(=S)Nc1ccc(Br)c(C)n1
 : i	-7.6%
- CC(NC(=O)c1ccc(Cn2cc([N+](=O)[O-])cn2)o1)c1ccccc1 (configuration not stated)
 : -21.6%	-11.8%
- CC1(C(=O)NS(=O)(=O)c2ccccc2Cl)CCN1C(=O)CCc1cccs1 (configuration not stated)
 : 12.6%	8.4%
- COc1ccc(CC(=O)NNC(=O)c2cccs2)cc1OC
 : i	0.6%
- O=C(c1ccco1)N1CCN(C(=O)C2CC(=O)N(c3ccc(Cl)cc3)C2)CC1 (configuration not stated)
 : -14.9%	-10.6%
- CCSc1nnc(CNC(=O)C23CC4CC(CC(C4)C2)C3)n1Cc1ccccc1
 : -19.1%	-18.6%
- O=C(c1cn(Cc2ccccc2)c2ccccc12)C1CC1
 : -0.4%	-10.4%
- Cc1ccc(C(=O)NCCCCNC(=O)c2ccc(C)o2)o1
 : x	-6.3%
- CC(=O)c1cc(-c2ccccc2)n(CCC(=O)NC(C)c2ccccc2)c1C (configuration not stated)
 : -8.3%	-2.1%
- CN1CCC(C(=O)N2CCCC(C(=O)c3ccc4c5c(cccc35)CC4)C2)CC1 (configuration not stated)
 : i	u
- CC(Sc1nnnn1C1CC1)C(=O)N1c2ccccc2NC(=O)C1(C)C (configuration not stated)
 : -12.7%	-12.3%
- CCc1ccc(/C=C(\C)C(=O)c2c(C)cc(C)[nH]c2=O)cc1
 : u	u
- Cc1cccc(NC(=O)CN(C)S(=O)(=O)c2ccc(Br)cc2)n1
 : i	-14.4%
- Cc1occc1-c1nnc(SCC(=O)N2CCN(c3ccccc3)CC2)n1C
 : -15.7%	-13.1%
- CC1Cn2c(nnc2-c2ccc(F)cc2)S1 (configuration not stated)
 : -2.1%	0.7%
- CCOC(=O)C1CCCN(S(=O)(=O)c2cc(-c3cc(C)no3)ccc2C)C1 (configuration not stated)
 : -0.7%	-7.1%
- O=C(NNS(=O)(=O)c1ccccc1)c1csc(-c2cccnc2)n1
 : -1.3%	-11.5%
- COc1ccccc1CN1CCN(C(=O)c2ccco2)CC1
 : -3.2%	-14.6%
- COc1ccc(OC)c(S(=O)(=O)Nc2cc3c4c(c2)CCN4C(=O)CC3)c1
 : -24.5%	-14.3%
- O=c1[nH]c(=O)n(-c2cccc3ccccc23)c(O)c1/C=N/N1CCCCC1c1cccnc1 (configuration not stated)
 : i	-10.5%
- COCCNC(=O)C(c1ccc(F)cc1)N(C(=O)CCC(=O)Nc1nccs1)c1cccc(C)c1 (configuration not stated)
 : -14.3%	-13.6%
- CCC(C)n1c(=N)c(C(=O)NC2CCCC2)cc2c(=O)n3ccccc3nc21 (configuration not stated)
 : -10.8%	-11.2%
- Cc1ccc2nc(NC(=O)C3CC(=O)N(Cc4ccco4)C3)sc2c1 (configuration not stated)
 : i	-20.9%
- CCC(CC)C(=O)Nc1cc([N+](=O)[O-])ccc1Cl
 : i	-5.5%
- CS(=O)(=O)c1ccc2nc(NC(=O)c3cccc(NS(=O)(=O)c4ccc(F)c(F)c4)c3)sc2c1
 : -6.9%	-19.6%
- O=C(CSc1nc2[nH]c(=O)[nH]c(=O)c2s1)Nc1cccc(F)c1
 : -16.9%	-2.1%

# The final 4 entries of the part above are carried over, then new ones follow:
# Fields – Vaccinia mCherry	VACV Venus inh
- Cc1ccc2nc(NC(=O)C3CC(=O)N(Cc4ccco4)C3)sc2c1 (configuration not stated)
 : i	-20.9%
- CCC(CC)C(=O)Nc1cc([N+](=O)[O-])ccc1Cl
 : i	-5.5%
- CS(=O)(=O)c1ccc2nc(NC(=O)c3cccc(NS(=O)(=O)c4ccc(F)c(F)c4)c3)sc2c1
 : -6.9%	-19.6%
- O=C(CSc1nc2[nH]c(=O)[nH]c(=O)c2s1)Nc1cccc(F)c1
 : -16.9%	-2.1%
- C/C(CC(=O)NCCCN1CCOCC1)=N\NC(=O)COc1ccc(Cl)cc1
 : -8.0%	-21.6%
- CCn1c(SCC(=O)NNC(=O)c2ccc(OC)cc2)nnc1-c1cccnc1
 : -15.2%	-11.3%
- Cc1ccc2c(c1)N(C(=O)C1CCN(S(=O)(=O)c3c(C)noc3/C=C/c3ccccc3F)CC1)CCO2
 : -17.0%[7.34 µM]	-16.2%[7.34 µM]
- Cc1ccccc1CN1C(=O)c2ccccc2Sc2ccc(C(=O)NC(C)c3ccccc3)cc21 (configuration not stated)
 : -5.5%	-7.1%
- O=C(NCCc1ccc(Cl)cc1)c1ccc(CS(=O)(=O)Cc2ccccc2F)o1
 : -20.9%	-10.3%
- Cc1ccc(C(=O)N2CCCC(CCC(=O)N3CCN(c4ccccn4)CC3)C2)cn1 (configuration not stated)
 : i	-13.0%
